Source: PubChem BioAssay
Calb biofilm kill = mixture kills Candida albicans biofilm cells. C. albicans biofilm persisters + clotrimazole, fluorescence viability; primary screen in compound mixtures of four per well. inhibition, % at 7.6 µM. 0.02% of 120,000 active. AID 1242;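 active = inhibition above 30.3% in the primary screen of four-compound pools, then above 30% when the compound was retested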;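 also: compounds exposed to preformed 24 h biofilms for 48 h; the number belongs to the whole pool; some results filed as inactive read as strong as hits; inactives centre near 12; 0% = biofilm with clotrimazole alone and 100% = kill control; retested singly at about 60 µM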
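Assay system: C. albicans biofilms / Medium: RPMI/MOPS medium, pH 7.0 / Schedule: biofilm formation 24 h, compound exposure 48 h, 37 °C / Measured by: Alamar Blue fluorescence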
An asterisk follows results filed as active. These rows are one share of the data (hit frequency here may not be typical).

SMILES | Calb biofilm kill
CCN1CCOC(CC(=O)Nc2ccc([N+](=O)[O-])cc2)C1=O (stereo not given) | 11
CCOc1cc(/C=C2\SC(=S)N(N3CCOCC3)C2=O)ccc1O | 17
COc1ccc(NC(=O)COC(=O)c2ccc(O)cc2)c([N+](=O)[O-])c1 | 10
Cc1occc1-c1nnc(SCC(=O)NC2CCCC2)n1-c1ccccc1 | 10
CC(NC(=O)COC(=O)c1cc(=O)[nH]c2ccccc12)c1ccccc1 (stereo not given) | 11
CC(=O)Cc1nsc(NC(=O)c2ccccc2Cl)n1 | 8
CC(C(=O)Nc1sc2c(c1C(=O)NCC1CCCO1)CCC2)N1C(=O)c2ccccc2C1=O (stereo not given) | 11
Cc1ccc(NC(N)=S)cc1 | 11
COc1ccc(/C=C(\C#N)C(=O)OCC(=O)N2CC(C)OC(C)C2)cc1 (stereo not given) | 14
Cc1ccc(-n2c(CSc3nc(C)cc(C)n3)nnc2SCC(=O)Nc2nccs2)cc1 | 23
CCc1noc(C)c1C(=O)Nc1nnc(C2CCCCC2)s1 | 6
Brc1ccccc1C1CC(c2ccccc2)=Nc2ccccc2N1 (stereo not given) | 18
COc1ccc2c(c1)O[C@@H](c1cccc(C(F)(F)F)c1)[C@H](OC(=O)N[C@H]1CCCc3ccccc31)C2=O | 1
O=c1c2ccccc2[nH]c(=S)n1CCN1CCC(=C(c2ccc(F)cc2)c2ccc(F)cc2)CC1 | 7
O=C(c1cc2ccccc2o1)N1CCCC1 | 25
Cc1ccc(C)c(N(C(=O)c2snc(C(N)=O)c2N)C(C(=O)NCC2CCCO2)c2cccs2)c1 (stereo not given) | -10
Cc1ccnc(NS(=O)(=O)c2ccc(NC(=O)c3ccc(Br)o3)cc2)n1 | 6
CCOc1ccc(NC(=O)CSc2nc3ccccc3c(=O)n2Cc2cccs2)cc1 | 8
Cc1ccc(-c2cn(-c3ccccc3)c(SCC(=O)NC3CCS(=O)(=O)C3)n2)cc1C (stereo not given) | 8
Fc1ccc(-n2c(Cc3cccs3)n[nH]c2=S)cc1Cl | 12

Looked up by structure from the entries so far (4):
SMILES | Calb biofilm kill
O=c1c2ccccc2[nH]c(=S)n1CCN1CCC(=C(c2ccc(F)cc2)c2ccc(F)cc2)CC1 | 7
Cc1ccc(C)c(N(C(=O)c2snc(C(N)=O)c2N)C(C(=O)NCC2CCCO2)c2cccs2)c1 (stereo not given) | -10
Fc1ccc(-n2c(Cc3cccs3)n[nH]c2=S)cc1Cl | 12
CCN1CCOC(CC(=O)Nc2ccc([N+](=O)[O-])cc2)C1=O (stereo not given) | 11

The main list resumes, starting 3 compounds before the break.
SMILES | Calb biofilm kill
CCOc1ccc(NC(=O)CSc2nc3ccccc3c(=O)n2Cc2cccs2)cc1 | 8
Cc1ccc(-c2cn(-c3ccccc3)c(SCC(=O)NC3CCS(=O)(=O)C3)n2)cc1C (stereo not given) | 8
Fc1ccc(-n2c(Cc3cccs3)n[nH]c2=S)cc1Cl | 12
COc1c(C=O)c(CCN(C)C(=O)c2ccc(F)cc2)cc2c1OCO2 | 24
CC(C)CCNC(=O)CCC(=O)NNc1nc2ccccc2c2nc(-c3ccccc3)nn12 | 15
C/C(=N\NC(=O)c1ccccc1)c1nc2ccccc2n1C | 15
O=C(CN1C(=O)CSc2ccccc21)N/N=C/c1ccco1 | 31
CCCOC(=O)C1=C(C)N(C)C(=O)NC1c1cc2c(cc1[N+](=O)[O-])OCO2 (stereo not given) | 12
O=C(CCc1nnc(-c2ccc3c(c2)OCO3)o1)NC(c1ccccn1)C(F)(F)F (stereo not given) | 16
Cc1ccc(S(=O)(=O)N2CCCCC2)cc1NC(=O)COC(=O)c1c(F)cccc1F | 15
Cc1ccc(N(C)S(=O)(=O)c2cccc(C(=O)Nc3nc4ccccc4[nH]3)c2)cc1 | 11
C=C(C)C(=O)Nc1cccnc1Oc1ccc(F)cc1F | 19
COc1cc(OC)cc(C(=O)n2nc(C)cc2C)c1 | 20
COc1cc(CCC(=O)OCC(=O)Nc2ccc(C(N)=O)cc2)cc(OC)c1OC | 16
CC1CCC(C(C)C)C(OC(=O)Cn2c(-c3ccc(Cl)cc3)[n+](C)c3ccccc32)C1 (stereo not given) | 16
Cc1ccc(C(=O)N(Cc2cccnc2)Cc2cc3cc(C)ccc3n3nnnc23)cc1 | 26
O=C(c1ccco1)N1CCN(C(=O)c2ccccc2NS(=O)(=O)c2ccc(F)cc2)CC1 | -2
CC(NC(=O)c1ccc(Br)cc1)c1ccccc1 (stereo not given) | 9
Cc1ccc(NC(=O)CN(c2ccc(Cl)cc2)S(=O)(=O)c2cc([N+](=O)[O-])ccc2Cl)c(C)c1 | 0
COc1ccc(C(=O)NNC(=O)C(=O)NC(C)c2ccccc2)cc1OC (stereo not given) | 20
CN1N=C2c3ccccc3CCCC2C1c1ccc(F)cc1 (stereo not given) | 11
COC(=O)c1cnn(-c2nc(OC)cc(OC)n2)c1C | 13
CC(C)C(=O)N1N=C2CCCCC2C1(O)C(F)(F)F (stereo not given) | 20
O=c1cc(CN2CCN(C/C=C/c3ccccc3)CC2)c2cc(O)c(-c3ccccc3)cc2o1 | 9
Nc1c(N(CCO)C(=O)/C=C/c2ccco2)c(=O)[nH]c(=O)n1Cc1ccccc1 | 2
Cc1noc(C)c1COc1cccc(C(=O)Nc2ccc3c(c2)OCO3)c1 | 12
CC(C)c1ccc(C(=O)N2CCN(c3cnn(C)c(=O)c3Cl)CC2)cc1 | 23
COc1cccc(C(=O)Nc2nnc(C(C)C)s2)c1 | 5
Cc1cccc(-n2cnc(C(=O)NNC(=S)Nc3ccc(Cl)cc3)c2)n1 | 15
CSc1ccc(OC2CCN(Cc3ccccc3)CC2)cc1 | 17
COc1ccc(Nc2nc3c(C)cccc3cc2C#N)c(OC)c1 | 20
O=C1CCCC(=O)C1CS(=O)(=O)c1ccccc1 | 7
COc1cc(C(=O)c2ccccc2Cl)c([N+](=O)[O-])cc1OC | -14
COc1ccccc1N1CCN(CC(=O)c2c(N)n(C)c(=O)n(C)c2=O)CC1 | 6
Cc1cccc(NCC(=O)N/N=C/c2cccc(Br)c2)c1 | 23
CSc1ccccc1NC(=O)N1CCC(CO)(CC2CCCCO2)CC1 (stereo not given) | 14
CC1CCN(C(=O)CCCOc2ccc(Cl)cc2)CC1 | 5
Cc1noc(C)c1C(=O)N1CCCC(C(=O)c2cccc(OC(C)C)c2)C1 (stereo not given) | 28
CC(NS(=O)(=O)/C=C/c1ccccc1)C(=O)O (stereo not given) | -9
Cc1c(Br)c([N+](=O)[O-])nn1CC(=O)N1CCc2ccccc2C1 | 9
O=C(CCn1c2c(c3ccccc31)CCCC2)NNC(=O)c1cccc([N+](=O)[O-])c1 | 8
C[N+]1=C(/C=C/Nc2ccccc2Cl)C(C)(C)c2ccccc21 | 21
O=[N+]([O-])c1cc(/C=N/O)ccc1Oc1ccccc1Cl | 8
Cc1ccc(Cl)cc1NC(=O)N(C)CCO | 12
Cc1cc(F)ccc1N1CCC(N2CCN(C(C)C)C(CCO)C2)CC1 (stereo not given) | -5
COc1cc2c(cc1NC(=O)CSc1ccc(Cl)cc1)oc1ccccc12 | 6
CCc1ccc(NC(=O)C(=O)NCCOc2ccccc2Cl)cc1 | 17
CCC(=O)NC(=S)Nc1c(C)cc(Br)cc1C | 14
O=C1CS/C(=N/N=C/c2c[nH]c3ccccc23)N1 | 27
Cc1ccc(NC(=S)NCCc2c[nH]c3ccccc23)c(C)c1 | 19
CCC(=O)N1CCN(c2ccc(NC(=O)c3ccc([N+](=O)[O-])o3)cc2)CC1 | -13
O=C(c1ccc2c(c1)OCO2)N1CCC2(CC1)Oc1ccc(Cl)cc1C(=O)C21CC(c2ccc(Cl)cc2)=NO1 (stereo not given) | 14
Cc1nn(-c2ccccc2)c2nc(C(Cl)(Cl)Cl)[nH]c(=O)c12 | 16

(continued)
SMILES | Calb biofilm kill
Cc1sc2ncnc(-n3nnc4ccccc43)c2c1C | 14
CCOC(=O)CNC(=O)c1ccc(Cl)s1 | 17
CCOC(=O)c1ccc(NC(=S)N2CCSC2c2c(F)cc(F)cc2F)cc1 (stereo not given) | 17
O=C(NCc1nc2ccccc2[nH]1)C1=C[C@@H](c2csc3ccccc23)C[C@@H](OCc2ccc(CO)cc2)O1 | 11
CC(=O)Nc1ccc(N2C(=O)c3cccc(NC(C)=O)c3C2=O)cc1 | 17
O=C(Cn1cnc2ccccc2c1=O)Nc1nnc(SCc2ccc(Cl)cc2)s1 | 2
[O-]c1c[n+](-c2ccc(-[n+]3cc([O-])on3)cc2)no1 | 7
O=C(c1ccc(C(F)(F)F)cc1)C1CCCN(C(=O)c2csnn2)C1 (stereo not given) | 7
CCOc1ccc(/C=N/NC(=S)NC2CC3CC2C2C=CCC32)cc1 (stereo not given) | 3
COc1ccc(N=C2SCC(c3ccc([N+](=O)[O-])cc3)=NN2CCO)cc1 | 12
CN(c1ccccc1)S(=O)(=O)c1cccc(NC(=O)c2cc3ccccc3oc2=O)c1 | -2
CC(=O)NC(Cc1ccccc1C)C(=O)NC1CCN(c2nnnn2-c2ccccc2)CC1 (stereo not given) | 4
COc1ccc(C(=O)OCCN2CCOCC2)cc1 | 4
O=C(c1ccc(Br)cc1)N(Cc1nc2ccccc2c(=O)[nH]1)C1CCCC1 | 14
CC(=O)Nc1sc2c(c1C(c1ccncc1)N1CCOCC1)CCCC2 (stereo not given) | 17
O=C(NCc1ccco1)c1cccc(NS(=O)(=O)c2cccc(F)c2)c1 | 8
Cc1cccc(NC(=O)CSc2nnc(CNC(=O)c3cccs3)o2)c1C | 10
Cc1cccc(NS(=O)(=O)c2cccc3nonc23)c1 | 3
Cc1ccc(S(=O)(=O)NNC(=O)c2csnn2)cc1 | 3
O=C(NCCO)Nc1ccc(Cl)cc1 | 12
CCn1cc(/C=N\NC(=O)Cc2ccc(Cl)cc2)cn1 | 13
COc1ccc(C2CC(C(F)(F)F)n3ncc(C(=O)Nc4c(C)n(C)n(-c5ccccc5)c4=O)c3N2)cc1 (stereo not given) | 18
CCOC(=O)N1CCC(N2CCN(S(=O)(=O)c3ccc([N+](=O)[O-])cc3)CC2)CC1 | 14
COc1ccc(-n2c(SCC(N)=O)nnc2-c2cccnc2)cc1 | 16
CCCCC(NC(=O)c1cccc(Br)c1)C(=O)O (stereo not given) | 23
Cc1ccccc1OCC(=O)N=Nc1c(O)n(C)c2ccccc12 | 15
CCOC(=O)/C(=N\Nc1ccccc1Cl)N1CCN(Cc2ccccc2)CC1 | 12
N/C(=N/OC(=O)c1ccc(Cl)cc1)c1ncc([N+](=O)[O-])s1 | 17
O=C1NC(Cc2ccccc2)C(=O)N1Cc1cc([N+](=O)[O-])cc2c1OCOC2 (stereo not given) | 14
COc1ccc(Nc2nnc(SCC(=O)Nc3ccc4[nH]c(=O)[nH]c4c3)s2)cc1 | 7
CC(=O)N1CCN(S(=O)(=O)c2cccc(C(=O)NC3CCC(C)CC3)c2)CC1 (stereo not given) | 15
Cc1ccc(NC(=O)CCSc2ccccn2)cc1 | 13
Cn1c(/C(C#N)=C/c2ccc(O)cc2)nc2ccccc21 | 2
CC(C)(C)c1nc(Sc2ccc([N+](=O)[O-])cn2)n[nH]1 | 13
CC(C)c1nnc(SCC(=O)NCc2ccc3c(c2)OCO3)n1C | 13
O=C(CN1CCCCCC1)Nc1ccc(S(=O)(=O)N2CCOCC2)cc1 | 16
Cc1cccc(C)c1OCc1nnc(SCC(=O)NCCc2ccccc2)o1 | 6
COc1cccc(CNc2ccc([N+](=O)[O-])c(NCC(=O)O)n2)c1 | 7
COC(=O)c1sccc1NC(=O)CC1C(=O)NCCN1C(=O)Nc1cc(Cl)ccc1OC (stereo not given) | 30
Cc1ccc(C(=O)CSc2nnc(-c3ccccc3)o2)cc1 | 6

Continued, overlapping the part above by 3 compounds.
SMILES | Calb biofilm kill
COc1cccc(CNc2ccc([N+](=O)[O-])c(NCC(=O)O)n2)c1 | 7
COC(=O)c1sccc1NC(=O)CC1C(=O)NCCN1C(=O)Nc1cc(Cl)ccc1OC (stereo not given) | 30
Cc1ccc(C(=O)CSc2nnc(-c3ccccc3)o2)cc1 | 6
O=c1oc(-c2ccc(Cl)c(Cl)c2)nn1-c1ccc(C(F)(F)F)cn1 | 21
CC(C)(C)OC(=O)N/N=C/c1cc(N=Nc2ccccc2)ccc1O | 13
COc1ccc(-c2cn3cccnc3n2)cc1NC(=O)c1cc(OC)c(OC)c(OC)c1 | 15
CCOc1ccc(Br)cc1S(=O)(=O)NCc1ccc(S(N)(=O)=O)cc1 | 18
COc1cc(NS(=O)(=O)c2ccc(NC(=S)NC(=O)/C=C/c3ccco3)cc2)ncn1 | 11
Cc1ccc2c(CC(=O)NNC(=O)c3ccccc3)coc2c1 | 17
COCCn1nnnc1C(c1cccs1)N1CCN2CCCC2C1 (stereo not given) | 12
CC(=O)c1ccc(OCCn2cnc3ccccc32)cc1 | 3
COc1ccccc1NC(=S)NC(=O)c1ccc(Cn2cc(Br)cn2)cc1 | 18
CN(CCO)c1nc(N)c2c(N)nc3c(c2c1C#N)CC(=O)N3Cc1cccs1 | 12
COc1cc(CNCCNCC(C)O)ccc1OCc1ccc(Cl)nc1 (stereo not given) | 6
O=C(c1ccc(-c2ccccc2)cc1)C1CCCN(C(=O)Cn2cncn2)C1 (stereo not given) | 11
Cn1nc(C(F)(F)F)c(C(=O)Nc2ccc(F)cc2)c1Cl | -11
CCCCc1ccc(NC(=O)c2cnccn2)cc1 | 0
COc1ccc(CN2CCNC(=O)C2CC(=O)N(C)Cc2ccon2)cc1OC (stereo not given) | 11
O=C(OCCN1C(=O)c2ccccc2C1=O)c1ccccc1 | 15
